Arbovirus anti = blocks arbovirus infection; AID 1251; actives 0.37% (n = 200,000); arbovirus infection cell-based antiviral screen; inhibition, % at 10 µM;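 active = inhibition from about 30%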;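 note: bluetongue infection of BSR cells; cell survival read as ATP light after 72 h; 0% = infected wells without compound and 100% = uninfected wells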
YopH PTP inh = YopH (Yersinia) phosphatase inhibition | fluorescence Ex485/Em525 | inhibition, %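 (about 10 µM by stock and volumes)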 | actives 0.16% (n = 140,000) | AID 898;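 active = inhibition of 50% or more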;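 note: controls were vehicle for no effect and minimum signal wells for full effect; inactives centre near -20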
Mtb growth = M. tuberculosis H37Rv growth inhibitors, H37Rv strain (AID 1626); M. tuberculosis H37Rv growth inhibition; higher % means a stronger effect; one-dose inhibition, % at 10 µM; IC50 in µM for titrated hits; actives 0.95% (n = 220,000);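 active = confirmed in a dose series; inconclusive = inhibition above 80% but not taken into the dose series; inactive = below 80% or under 30% at every dose of the series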;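 note: bacteria incubated seven days before Alamar blue readout; 0% = bacteria only wells and 100% = bacteria with antibiotic wells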
RecA splice inh = Mtb RecA intein splicing inhibition; P9WHJ3; cell-free RecA intein splicing, fluorescence; actives 0.75% (n = 290,000); inhibition, %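 (about 9 µM by stock and volumes)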; in the data active = inhibition above about 30%; inconclusive = no clear call, values can overlap the other calls;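 note: 0% = vehicle wells and 100% = reference inhibitor control wells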
Target sequence (P9WHJ3 whole entry, looked up, canonical isoform): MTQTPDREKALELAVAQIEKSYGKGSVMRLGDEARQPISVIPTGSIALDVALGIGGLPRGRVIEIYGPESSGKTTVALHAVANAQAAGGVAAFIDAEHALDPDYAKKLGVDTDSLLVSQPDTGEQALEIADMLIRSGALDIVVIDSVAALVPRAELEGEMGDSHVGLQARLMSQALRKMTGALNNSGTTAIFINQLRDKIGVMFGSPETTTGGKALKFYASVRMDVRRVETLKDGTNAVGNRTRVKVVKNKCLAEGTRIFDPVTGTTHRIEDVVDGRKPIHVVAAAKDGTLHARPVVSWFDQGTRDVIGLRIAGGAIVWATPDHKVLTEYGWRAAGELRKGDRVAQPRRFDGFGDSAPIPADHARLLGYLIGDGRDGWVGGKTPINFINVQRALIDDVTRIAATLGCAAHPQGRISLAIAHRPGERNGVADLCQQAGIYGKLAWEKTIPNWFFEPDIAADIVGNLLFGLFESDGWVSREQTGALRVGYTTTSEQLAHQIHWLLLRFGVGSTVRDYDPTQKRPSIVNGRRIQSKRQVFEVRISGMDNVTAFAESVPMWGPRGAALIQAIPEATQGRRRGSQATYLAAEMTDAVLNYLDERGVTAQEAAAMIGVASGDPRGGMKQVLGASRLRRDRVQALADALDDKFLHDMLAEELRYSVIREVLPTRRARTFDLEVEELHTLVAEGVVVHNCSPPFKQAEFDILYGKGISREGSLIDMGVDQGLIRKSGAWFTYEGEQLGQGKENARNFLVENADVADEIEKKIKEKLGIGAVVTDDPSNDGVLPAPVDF
Mtb betalactam = beta-lactam sensitization of Mtb H37Rv; actives 0.27% (n = 330,000); inhibition, % at 25 µM; AID 434955; M. tuberculosis H37Rv growth with meropenem, percent inhibition; hits of this screen are not shown here;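 active = about 74% or more and at least 40 points above the plate without the antibiotic, then above 30% in a dose series; inconclusive = first-round hits that could not be retested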;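 note: growth measured after seven days incubation then overnight dye step; 0% = bacteria only wells and 100% = bacteria with antibiotic; twin plates without the antibiotic show which effects depend on it; some results filed as inactive read as strong as hits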
Arbovirus anti repeat = recorded beside Arbovirus anti, whose call it bears; inhibition, %; measured here: 10K subset replicate screen; many hits read low in the repeat;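 first of two repeat runs on a subset; 0% = infected and 100% = uninfected wells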
* hit, by the source's call; ? = inconclusive; nt = no result given; & = joins results of further samples. A portion of the library; the hit share may differ from the screen's.

SMILES	Arbovirus anti	YopH PTP inh	Mtb growth	RecA splice inh	Mtb betalactam	others
COCCCN1C(=O)c2[nH]nc(-c3ccccc3O)c2C1c1cccc(Cl)c1 (stereo not given)	-10	-24	-2%	11	-2
O=C(NCCNC(=O)c1cc(OCC(F)(F)F)ccc1OCC(F)(F)F)Nc1ccccc1	1	-1	1%	3.5	0
CCOc1ccccc1N(CC(=O)N1CCCCCC1)S(C)(=O)=O	1	2	-7%	nt	1	Arbovirus anti repeat=5
Cc1nn(CC(O)c2ccccc2)c(C)c1Br (stereo not given)	5	4	4%	2.3	-18
CCOc1ccccc1C(=O)Nc1ccc2c(c1)C(=O)NC2=O	nt	nt	nt	0.3	3
Cc1ccccc1-c1nc(CS(=O)(=O)CC(=O)NCc2ccccc2)c(C)o1	2	-15	4%	2.1	-3
CC(CCc1ccccc1)NCC(O)COc1ccccc1 (stereo not given)	5	nt	14%	4.7	-6
O=C(NNC(=O)C1C2CCC(C2)C1C(=O)O)c1ccc(Cl)cc1 (stereo not given)	1	nt	-5%	-2.6	4
Cc1cc(C)c(C)c(S(=O)(=O)N2CCSCC2)c1C	nt	nt	nt	2.6	3
C[C@H]1CC[C@@H]2N(C1)C[C@H]1[C@@H]3C[C@H]4[C@@H](CC(=O)[C@H]5C[C@@H](O)CC[C@@]54C)[C@@H]3CC[C@H]1[C@]2(C)O	nt	nt	nt	-12	6
Cc1c(NC(=O)N(C)C)c(=O)n(-c2ccccc2)n1C	6	-34	-7%	-2.4	-10
O=S(=O)(c1ccc(F)c(F)c1)N1CCN(CCc2ccccc2)CC1	nt	nt	nt	0.4	-6
CCOc1cc(-c2sc(Nc3ccccc3)n[n+]2C)ccc1OC	nt	nt	nt	1.3	-14
CCNC(=S)N(Cc1cc2cc(C)cc(C)c2[nH]c1=O)C1CCCC1	1	-15	-6%	-1.8	5
CN1C(=O)CC(N2CCC(C(N)=O)CC2)C1=O (stereo not given)	-3	-4	-10%	0.6	-11
CCOc1ccc(CN2CCNC(=O)C2CC(=O)O)cc1 (stereo not given)	7	nt	-3%	2.3	2
COc1ccc(/C=C2/C(=N)N3C(=NC2=O)Sc2cc(S(C)(=O)=O)ccc23)cc1OC	nt	nt	-7%	-3.2	-6
COc1ccc(C(C(=O)NCC2CCCO2)N(C(=O)c2snc(C(N)=O)c2N)c2ccccc2C)cc1OC (stereo not given)	nt	nt	nt	-4.3	2
CC1=C(C#N)C(/C=N/OCc2ccc(Cl)cc2)CC(=O)N1 (stereo not given)	5	nt	8%	-3.0	2
COc1ccccc1N1CCN(CC(=O)c2c[nH]c3ccccc23)CC1	nt	nt	7%	2.0	3
CN1CCN(S(=O)(=O)c2ccc(N3CCN(C(c4ccccc4)c4ccccc4)CC3)nc2)CC1	-14	nt	6%	-2.9	0
CCNC(=S)N(Cc1cccs1)Cc1cc2cc(OCC)ccc2[nH]c1=O	-5	-34	6%	-1.7	-2
O=[N+]([O-])c1ccccc1/C=C/CN1CCCCC1	6	-30	-6%	0.5	-9
CNC(=S)N1N=C(c2cccs2)CC1c1ccc(OC)cc1 (stereo not given)	nt	nt	nt	1.9	-1
O=C(Nc1ccc(F)cc1)c1cccc2ccccc12	nt	nt	nt	0.7	3

4 compounds picked at random from those above:
SMILES	Arbovirus anti	YopH PTP inh	Mtb growth	RecA splice inh	Mtb betalactam	others
C[C@H]1CC[C@@H]2N(C1)C[C@H]1[C@@H]3C[C@H]4[C@@H](CC(=O)[C@H]5C[C@@H](O)CC[C@@]54C)[C@@H]3CC[C@H]1[C@]2(C)O	nt	nt	nt	-12	6
CCOc1ccccc1N(CC(=O)N1CCCCCC1)S(C)(=O)=O	1	2	-7%	nt	1	Arbovirus anti repeat=5
CN1C(=O)CC(N2CCC(C(N)=O)CC2)C1=O (stereo not given)	-3	-4	-10%	0.6	-11
COc1ccc(C(C(=O)NCC2CCCO2)N(C(=O)c2snc(C(N)=O)c2N)c2ccccc2C)cc1OC (stereo not given)	nt	nt	nt	-4.3	2

Ordered by molar mass (high to low): some entries from above.
SMILES	Arbovirus anti	YopH PTP inh	Mtb growth	RecA splice inh	Mtb betalactam	others
CCNC(=S)N(Cc1cccs1)Cc1cc2cc(OCC)ccc2[nH]c1=O	-5	-34	6%	-1.7	-2
CNC(=S)N1N=C(c2cccs2)CC1c1ccc(OC)cc1 (stereo not given)	nt	nt	nt	1.9	-1
CCOc1ccc(CN2CCNC(=O)C2CC(=O)O)cc1 (stereo not given)	7	nt	-3%	2.3	2
CN1C(=O)CC(N2CCC(C(N)=O)CC2)C1=O (stereo not given)	-3	-4	-10%	0.6	-11

Among those listed so far, 2 have a thiophene ring, fused or not:
SMILES	Arbovirus anti	YopH PTP inh	Mtb growth	RecA splice inh	Mtb betalactam	others
CCNC(=S)N(Cc1cccs1)Cc1cc2cc(OCC)ccc2[nH]c1=O	-5	-34	6%	-1.7	-2
CNC(=S)N1N=C(c2cccs2)CC1c1ccc(OC)cc1 (stereo not given)	nt	nt	nt	1.9	-1

The listing picks up, repeating the 5 entries before the break.
SMILES	Arbovirus anti	YopH PTP inh	Mtb growth	RecA splice inh	Mtb betalactam	others
CN1CCN(S(=O)(=O)c2ccc(N3CCN(C(c4ccccc4)c4ccccc4)CC3)nc2)CC1	-14	nt	6%	-2.9	0
CCNC(=S)N(Cc1cccs1)Cc1cc2cc(OCC)ccc2[nH]c1=O	-5	-34	6%	-1.7	-2
O=[N+]([O-])c1ccccc1/C=C/CN1CCCCC1	6	-30	-6%	0.5	-9
CNC(=S)N1N=C(c2cccs2)CC1c1ccc(OC)cc1 (stereo not given)	nt	nt	nt	1.9	-1
O=C(Nc1ccc(F)cc1)c1cccc2ccccc12	nt	nt	nt	0.7	3
NC(=O)c1cc2cc(Br)ccc2oc1=NCc1ccccc1	-10	-32	-1%	0.7	23
COc1ccc(Cl)cc1NS(=O)(=O)c1c(C)[nH]c(=O)[nH]c1=O	nt	nt	nt	-3.4	-2
O=C(Nc1cccnc1)c1ccc([N+](=O)[O-])cc1Cl	4	nt	-1%	-5.2	-5
CCCCC#Cc1ccc2c(c1)COc1c3ccccc3nn1-2	nt	nt	-12%	5.3	97
CCNc1nc(NC(C)C)nc(Oc2ccc(OCCOc3ccc(C)cc3)nn2)n1	-2	-24	1%	-0.4	2
CCCSc1nc2sc3c(c2c(=O)[nH]1)CC(C)CC3 (stereo not given)	0	nt	-22%	-0.8	-4
CN(CC(=O)Nc1ccccc1Cl)C(=O)COC(=O)c1ccc(S(=O)(=O)C(F)F)cc1	nt	nt	nt	0.2	-8
CCN(C(=O)CSc1nnc(Cc2ccccc2F)n1N)C1CCS(=O)(=O)C1 (stereo not given)	4	-9	-11%	-1.9	-3
CCOC(=O)C1CCCN(S(=O)(=O)CCNC(=O)c2ccc(F)cc2)C1 (stereo not given)	nt	nt	nt	-0.7	-3
COc1cccc(CN2C(=O)CCC2(C)C(=O)NC2CCCC2)c1 (stereo not given)	-2	-1	-13%	-1.9	-3
CCOc1ccc(C(=O)OCCCN(C)C)cc1	-7	-17	3%	-2.6	-1
CC(=O)N1CCC(N(CCN2CCOCC2)C(=S)Nc2ccc(C)cc2)CC1	10	nt	-17%	1.3	-1
O=C1NC(=Nc2ccccc2Br)SC1(CO)CO	nt	nt	nt	-0.6	2
CCCC(=O)OC1CC(C)N(C(=O)c2ccccc2)c2ccc(C)cc21 (stereo not given)	-12	-33	5%	-0.6	-3
CC(C)n1c(=S)[nH]c2scc(-c3cccs3)c2c1=O	nt	nt	12%	2.8	-3
CCOc1ccc(NC(=O)c2ccccc2NC(=O)CN2CCN(C(C)=O)CC2)cc1	10	-41	-3%	-0.3	4
CCN(C(C)=O)c1nc(CCl)cs1	4	nt	1%	0.2	-5
CC(=O)c1cc2c(cc1NC(=O)CSc1nc3ccccc3[nH]1)OCO2	7	-27	4%	-4.7	4
O=c1c2ccccc2nc(SCc2ccc([N+](=O)[O-])cc2)n1CCCO	7	-9	17%	-12	7
O=C(CSC(=S)N1CCCC1)Nc1ncc(Cl)cc1Cl	nt	nt	nt	-1.1	-2
Cc1ccc(-c2csc3ncnc(SCC(N)=O)c23)cc1	2	nt	8%	0.6	7
O=C(O)c1cccc(NC(=S)N/N=C/c2cccnc2)c1	-2	nt	-3%	-9.4	-4
COc1cc(SC)ccc1C(=O)OCC(=O)NC(=O)NC(C)C	2	nt	-7%	1.2	-9
COc1ccc2c(c1)C(C)=CC(C)(C)N2C(=O)C(C)N1C(=O)c2ccccc2C1=O (stereo not given)	0	-27	-3%	4.4	12
Nc1nn(-c2ccccc2)nc1C(=O)OCc1ccccc1	nt	nt	0%	-3.3	4
SMILES	Arbovirus anti	YopH PTP inh	Mtb growth	RecA splice inh	Mtb betalactam	others
COC(=O)N1CCN(C(=O)Cc2ccc(Cl)c(Cl)c2)C(CN2CCCC2)C1 (stereo not given)	-2	nt	-7%&-6%	2.7	-4
Cc1cc(=O)[nH]c(N/N=C/c2ccc(-c3ccc([N+](=O)[O-])cc3)o2)n1	nt	nt	nt	-2.3	-2
N#CC1=C(N)OC2=C(C(=O)CC(c3ccccc3)C2)C1c1ccc2c(c1)OCO2 (stereo not given)	-7	-19	-1%	0.2	2
O=C(CNC(c1ccccc1)c1ccccc1)Nc1c(F)cccc1F	-9	-31	7%	8.0	-2
O=C(CN1CCN(c2ccccn2)CC1)Nc1cccc(S(=O)(=O)N2CCOCC2)c1	nt	nt	-2%	0.1	1
Cc1ccc(S(=O)(=O)N2CCOCC2)cc1NC(=O)CSc1nnnn1C	5	nt	-4%	-0.3	-3
COc1ccc(/C=N/NC(=O)c2cccnc2)cc1Cn1nc([N+](=O)[O-])c(Br)c1C	-14	nt	-3%	0.9	4
CN(C)N=Nc1ccc(S(=O)(=O)NC(=O)Cc2ccccc2)cc1	nt	nt	nt	-3.3	-1
CCC(C)(C(=O)NC1CCCC1)N(CC1CCCO1)C(=O)CNC(=O)c1ccccc1 (stereo not given)	6	-8	-7%	5.4	-7	Arbovirus anti repeat=2
CCC(C)[C@H](NC(=O)N1CCCC1)C(=O)OC (stereo not given in full)	7	-14	-4%	1.6	-2
O=C(CSc1cccs1)NCCc1ccccc1	-3	-14	-2%	0.9	3
COc1ccc(C(=O)C2CCN(CC(=O)NCc3ccccc3)CC2)cc1	nt	nt	nt	1.8	0
Cc1ccc(OCC(O)CN2CCC(Cc3ccccc3)CC2)c(C)c1 (stereo not given)	nt	nt	nt	2.8	20
CCCCNC(=S)N(CCN(CC)CC)Cc1cc2cc3c(cc2[nH]c1=O)OCCO3	nt	nt	nt	-4.5	3
COc1ccc(Cl)cc1NC(=O)CN(C)C1CCCCC1	1	-4	2%	-1.2	34
CC1CCC(C(C)C)C(OCC[N+](C)(C)C)C1 (stereo not given)	-5	-7	10%	-7.3	2
Clc1ccc(Cn2cccc2C2=NCCO2)cc1	3	-30	-4%	0.9	2
CCOc1cccc(N2C(=O)CC(n3cnc4ccccc43)C2=O)c1 (stereo not given)	7	-28	-6%	0.6	0
COc1ccc(N=C2C(=Nc3ccc(OC)cc3)N(c3ccc(OC)cc3)C(=S)N2C(=O)c2ccc(OC)cc2)cc1	-5	30	8%	4.4	-4
Cc1ccc(C)c(N2CCN(C(=S)NC3CCCCC3)CC2)c1	-1	-26	-5%	-1.6	-5
CC/C(C)=N/Nc1nc(-c2cc3cccc(OC)c3oc2=O)cs1	nt	nt	-5%	-2.9	-8
O=S(=O)(c1cccc(-c2nnco2)c1)N1CCOCC1	2	nt	2%	1.6	-7
Nc1c(C(=O)NC23CC4CC(CC(C4)C2)C3)sc2nc3c(c(C(F)(F)F)c12)CCC3	-2	-41	-10%	-4.0	?
Cc1cc(C(=O)Nc2cccnc2)on1	5	-37	1%	-0.1	11	Arbovirus anti repeat=1
CC1(C)Cc2c(C#N)c(NCCN3CCOCC3)nc(-c3ccccc3)c2CO1	nt	nt	1%	-3.6	-4
COC(=O)c1ccc(CSc2nc(N3CCOCC3)c3c(c2C#N)CC(C)(C)OC3)o1	-9	-39	-16%	-0.2	98
CCOC(=O)C1CCCN(C(=O)CNC(=O)Cn2ccc3ccccc3c2=O)C1 (stereo not given)	0	-1	-1%	nt	-4	Arbovirus anti repeat=6
CCOc1cc(/C=C2/C(=N)N3C(=NC2=O)SN=C3S(C)(=O)=O)ccc1OC(=O)c1ccco1	nt	nt	nt	9.8	2
CCN(CC)S(=O)(=O)c1ccc(C(=O)C(C#N)c2ccccn2)cc1 (stereo not given)	-2	-20	-4%	3.9	10	Arbovirus anti repeat=0
